# Compound activity (PubChem)
# Vaccinia stage: blocks a specific stage of Vaccinia orthopoxvirus infection | actives 0.01% (n = 89,000) | Vaccinia-infected cells, mCherry/Venus stage reporter fluorescence; active compounds read low; some inactives read as strong as hits | activity change (mCherry), % (test concentration not listed) | AID 1053133;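 active = mCherry past -33% and 40 or more points under the early reporter, replicates agreeing; inconclusive = past -33% without that gap or agreement; tested in A549 cells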;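 note: scaled between vehicle wells and reference inhibitor wells; 23 nL library stock went into each well; one replicate is shown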
# Vaccinia stage Venus: recorded beside Vaccinia stage, whose call it bears; activity change (Venus), %; measured here: Venus reporter, other viral stage;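 negative = less Venus signal; first of two replicates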
# * = called active by the depositor; ? = inconclusive; · = no result given; & = joins results of further samples. Only part of the results is shown (hit frequency here may not be typical).
SMILES,Vaccinia stage,Vaccinia stage Venus
C[C@@H]1CN([C@@H](C)CO)C(=O)c2cc(NS(=O)(=O)c3cn(C)cn3)ccc2O[C@@H](C)CCCCO[C@H]1CN(C)C(=O)Nc1ccc(F)cc1,17,3
CC(C)NC(=O)Nc1ccc2c(c1)C(=O)N([C@H](C)CO)C[C@@H](C)[C@@H](CN(C)S(=O)(=O)c1ccc(Cl)cc1)OCCCC[C@@H](C)O2,-31,-13
C[C@H](CO)N1C[C@H](C)[C@@H](CN(C)Cc2ccc(C(=O)Nc3ccccc3N)cc2)Oc2ccc(NC(=O)Cc3ccccc3)cc2C1=O,12,11
O=C(NCC[C@@H]1CC[C@@H](NS(=O)(=O)c2ccccc2)[C@H](CO)O1)c1ccc2c(c1)OCO2,-1,-5
O=C(N[C@@H]1CC[C@H](CCNC(=O)C2CCOCC2)O[C@H]1CO)c1ccncc1,-1,2
CC(C)CC#Cc1cnc2c(c1)C(=O)N([C@H](C)CO)C[C@H](C)[C@H](CN(C)C(=O)Nc1cc(F)ccc1F)O2,-23,-20
C[C@H](CO)N1C[C@H](C)[C@@H](CN(C)C(=O)Nc2ccc(F)cc2)Oc2ccc(NS(=O)(=O)c3cn(C)cn3)cc2CC1=O,4,5
Cc1ccc(S(=O)(=O)Nc2cccc3c2O[C@@H](CN(C)S(C)(=O)=O)[C@@H](C)CN([C@H](C)CO)C3=O)cc1,10,3
COCC(=O)N1[C@@H](C#N)[C@@H](c2ccc(C#CCC3CCCC3)cc2)[C@@H]1CO,?,·
O=C(NC[C@H]1CC[C@@H]2[C@@H](CN2C(=O)Cc2ccncc2)O1)C1CCOCC1,3,7
C[C@H](CO)N1C[C@H](C)[C@@H](CN(C)C(=O)Nc2cccc(Cl)c2Cl)OCc2ccccc2-c2ccccc2C1=O,?,·
Cc1ccc(S(=O)(=O)Nc2ccc3c(c2)C(=O)N([C@H](C)CO)C[C@@H](C)[C@@H](CN(C)Cc2ccccc2)O3)cc1,-16,-16
C[C@H](CO)N1C[C@H](C)[C@@H](CN(C)Cc2ccccc2)Oc2ccc(NC(=O)Nc3cccc4ccccc34)cc2CC1=O,-24,-13
C[C@H](CO)N1C[C@H](C)[C@H](CN(C)C(=O)Nc2ccc(C(F)(F)F)cc2)Oc2c(NC(=O)CCCCCC(=O)Nc3ccccc3N)cccc2C1=O,-6,2
O=C(C[C@@H]1C[C@H]2c3cc(NC(=O)NC4CCCC4)ccc3O[C@H]2[C@@H](CO)O1)NCCN1CCCCC1,6,10
C[C@@H]1CN([C@H](C)CO)C(=O)c2cc(NS(=O)(=O)c3ccc(F)cc3)ccc2O[C@H]1CN(C)Cc1ccc(C(=O)Nc2ccccc2N)cc1,8,1
COc1ccc(CN(C)C[C@@H]2Oc3ccc(NS(=O)(=O)c4c(C)noc4C)cc3CC(=O)N([C@H](C)CO)C[C@@H]2C)cc1,-5,0
C[C@H](CO)N1C[C@H](C)[C@H](CN(C)Cc2ccccc2)OCCCC[C@H](C)Oc2ccc(NC(=O)CCC(F)(F)F)cc2C1=O,?,·
C[C@H](NC(=O)C[C@H]1C=C[C@@H](NC(=O)C2CCOCC2)[C@@H](CO)O1)c1ccccc1,3,3
C/C=C/c1ccc(C2[C@@H]3CN(C(=O)CN(C)C)C[C@H]2N3)cc1 (stereo partly drawn),2&-13,0&-4
C[C@H]1CN([C@@H](C)CO)C(=O)c2cccc(NC(=O)Nc3ccccc3)c2O[C@@H]1CN(C)S(=O)(=O)c1ccc(Cl)cc1,-5,-2
COc1ccc(S(=O)(=O)Nc2ccc3c(c2)C(=O)N([C@@H](C)CO)C[C@@H](C)[C@@H](CN(C)S(=O)(=O)c2ccc(F)cc2)OCCCC[C@@H](C)O3)cc1,-15,-11
C[C@H](CO)N1C[C@H](C)[C@H](CN(C)Cc2ccc(F)cc2)Oc2ncc(C#CCN(C)C)cc2C1=O,8,4
CC(C)NC(=O)N[C@@H]1C=C[C@@H](CC(=O)NCc2ccc(Oc3ccccc3)cc2)O[C@@H]1CO,-2,-2
C[C@H]1CN([C@@H](C)CO)C(=O)c2cc(C#Cc3cccc(F)c3)cnc2O[C@@H]1CN(C)C(=O)C1CC1,6,1

# Molecules listed so far that have two or more sulfur atoms, in the order listed:
SMILES,Vaccinia stage,Vaccinia stage Venus
Cc1ccc(S(=O)(=O)Nc2cccc3c2O[C@@H](CN(C)S(C)(=O)=O)[C@@H](C)CN([C@H](C)CO)C3=O)cc1,10,3
COc1ccc(S(=O)(=O)Nc2ccc3c(c2)C(=O)N([C@@H](C)CO)C[C@@H](C)[C@@H](CN(C)S(=O)(=O)c2ccc(F)cc2)OCCCC[C@@H](C)O3)cc1,-15,-11

# Full records, quoted from the list:
# C[C@H]1CN([C@@H](C)CO)C(=O)c2cccc(NC(=O)Nc3ccccc3)c2O[C@@H]1CN(C)S(=O)(=O)c1ccc(Cl)cc1 as listed: Vaccinia stage: -5; Vaccinia stage Venus: -2
# O=C(N[C@@H]1CC[C@H](CCNC(=O)C2CCOCC2)O[C@H]1CO)c1ccncc1 as listed: Vaccinia stage: -1; Vaccinia stage Venus: 2

# (cont.)
SMILES,Vaccinia stage,Vaccinia stage Venus
C[C@H]1CN([C@@H](C)CO)C(=O)c2cccc(NS(=O)(=O)c3cccs3)c2O[C@H]1CN(C)Cc1ccc(C(=O)Nc2ccccc2N)cc1,5,1
C[C@H](CO)N1C[C@H](C)[C@H](CN(C)C(=O)C2CCCCC2)Oc2ncc(C3=CCCC3)cc2C1=O,7,2
COc1ccc(S(=O)(=O)Nc2ccc3c(c2)C(=O)N([C@H](C)CO)C[C@@H](C)[C@H](CN(C)S(C)(=O)=O)O3)cc1,21,10
CCCNC(=O)[C@H]1[C@H](CO)[C@H]2Cn3c(ccc(-c4ccccc4)c3=O)[C@@H]1N2C(=O)CC1CC1,12,5
C/C=C/c1cccc(-c2nc(C(=O)NCCC)cc3c2[C@@H](CCO)N([S@](=O)C(C)(C)C)C3)c1,6,22
CCCN1[C@@H]2c3ccc(C4=CCCC4)c(=O)n3C[C@@H]2[C@@H](CO)[C@@H]1C(=O)NCc1cccc(OC)c1,17,15
CCC(=O)N(C)C[C@@H]1Oc2ncc(C#CCC(C)C)cc2C(=O)N([C@@H](C)CO)C[C@H]1C,13,5
O=C(Nc1ccc(F)cc1)N[C@@H]1CC[C@@H](CCn2cc(-c3ccc(F)cc3)nn2)O[C@@H]1CO,-4,-2
C[C@H]1CN([C@@H](C)CO)C(=O)c2cccc(NC(=O)Nc3cccc4ccccc34)c2O[C@H]1CN(C)Cc1ccccc1,-17,-11
C[C@H](O)C#Cc1ccc([C@@H]2[C@H](CO)N3CCCCN(C(=O)c4ccc5c(c4)OCO5)C[C@@H]23)cc1,-2,-4
O=C(Nc1ccccc1)N1C[C@@H]2[C@H](c3ccccc31)[C@@H](CO)N2C(=O)c1ccccc1F,14,11
CCCNC(=O)C[C@H]1CC[C@H]2[C@@H](COc3ccc(NC(=O)NC(C)C)cc3C(=O)N2C)O1,5,2
CC(C)CC#Cc1ccc2c(c1)O[C@@H](CN(C)Cc1cncnc1)[C@@H](C)CN([C@H](C)CO)S2(=O)=O,-17,-14
C[C@@H]1CN([C@H](C)CO)C(=O)c2cccc(NC(=O)Nc3ccc4c(c3)OCO4)c2O[C@H]1CN(C)S(=O)(=O)c1ccc(F)cc1,13,5
C[C@@H]1CN([C@@H](C)CO)C(=O)CCCn2cc(nn2)CO[C@H]1CN(C)C(=O)Nc1ccccc1C(F)(F)F,6&-5,7&-16
Cc1noc(C)c1NC(=O)Nc1ccc2c(c1)C(=O)N([C@H](C)CO)C[C@@H](C)[C@@H](CN(C)C(=O)Nc1cccc3ccccc13)O2,8,6
C[C@@H]1CN([C@@H](C)CO)C(=O)c2cccc(NC(=O)NC3CCCCC3)c2O[C@H]1CN(C)CC1CCCCC1,-10,-8
C[C@H](CO)N1C[C@H](C)[C@@H](CN(C)S(=O)(=O)c2ccc(Cl)cc2)OCCCC[C@H](C)Oc2ccc(NC(=O)c3ccncc3)cc2C1=O,-18,-18
C[C@@H]1CN([C@H](C)CO)C(=O)c2cccc(NS(=O)(=O)c3cn(C)cn3)c2O[C@H]1CN(C)Cc1ccc(C(=O)O)cc1,17,14
N#C[C@@H]1N[C@H](CO)[C@@H]1c1ccccc1,11,8
C[C@H](CO)N1C[C@H](C)[C@H](CN(C)Cc2ccncc2)Oc2c(NS(=O)(=O)c3cn(C)cn3)cccc2C1=O,5,6
C/C=C/c1ccc2c(c1)O[C@@H](CN(C)C(=O)CC1CC1)[C@@H](C)CN([C@@H](C)CO)S2(=O)=O,0,-3
C[C@@H]1CN([C@@H](C)CO)C(=O)c2cccc(N(C)C)c2O[C@H]1CN(C)C(=O)NC1CCCCC1,-5,-21
CCCN1[C@@H]2c3ccc(-c4ccccc4)c(=O)n3C[C@@H]2[C@@H](CO)[C@@H]1C(=O)N1CCCCC1,-20,-2
C[C@@H]1CN([C@@H](C)CO)C(=O)c2cc(NC(=O)c3ccccc3)ccc2O[C@@H](C)CCCCO[C@H]1CN(C)C(=O)C1CCCCC1,-24,-29

# Grouped by structure, the entries above with an aryl methoxy group.
SMILES,Vaccinia stage,Vaccinia stage Venus
COc1ccc(CN(C)C[C@@H]2Oc3ccc(NS(=O)(=O)c4c(C)noc4C)cc3CC(=O)N([C@H](C)CO)C[C@@H]2C)cc1,-5,0
COc1ccc(S(=O)(=O)Nc2ccc3c(c2)C(=O)N([C@@H](C)CO)C[C@@H](C)[C@@H](CN(C)S(=O)(=O)c2ccc(F)cc2)OCCCC[C@@H](C)O3)cc1,-15,-11
COc1ccc(S(=O)(=O)Nc2ccc3c(c2)C(=O)N([C@H](C)CO)C[C@@H](C)[C@H](CN(C)S(C)(=O)=O)O3)cc1,21,10
CCCN1[C@@H]2c3ccc(C4=CCCC4)c(=O)n3C[C@@H]2[C@@H](CO)[C@@H]1C(=O)NCc1cccc(OC)c1,17,15

# Following part.
SMILES,Vaccinia stage,Vaccinia stage Venus
CO[C@H]1CN(C)C(=O)c2ccc(NC(=O)c3cccc(F)c3)cc2OC[C@H](C)N(C(C)=O)C[C@@H]1C,-5,-11
C[C@H](CO)N1C[C@H](C)[C@@H](CN(C)S(=O)(=O)c2cn(C)cn2)Oc2ncc(C3=CCCCC3)cc2C1=O,0,-3
CCS(=O)(=O)N1CC2(C1)[C@@H](c1ccccc1)[C@@H](CO)N2CC1CCCC1,-12,-3
C[C@H](CO)N1C[C@H](C)[C@@H](CN(C)C(=O)c2ccccc2)OCCCC[C@H](C)Oc2ccc(NC(=O)CCC(F)(F)F)cc2C1=O,-21,-15
C[C@@H]1CN([C@H](C)CO)C(=O)Cc2cc(NC(=O)C3CC3)ccc2O[C@H]1CN(C)C,9,3
CN(C)C(=O)c1ccc(-c2ccc3c(c2)[C@@H]2[C@@H](CCN2C(=O)C2CCC2)[C@@H](CO)N3C)cc1,-20,-11
CN(C)C(=O)c1ccc(-c2ccc(C3[C@@H]4CN(S(=O)(=O)c5ccc(F)cc5)C[C@H]3N4)cc2)cc1 (stereo partly drawn),15&-19,14&-19
C[C@@H]1CN([C@H](C)CO)S(=O)(=O)c2ccc(-c3ccc(F)cc3)cc2O[C@@H]1CN(C)C(=O)C1CCOCC1,6,2
Cc1cccc(-c2ccc([C@H]3[C@@H](CO)N4CCCCN(S(=O)(=O)c5cccc(C)c5)C[C@H]34)cc2)c1,?,·
Cc1ccc(-c2ccc3c(c2)O[C@H](CN(C)Cc2ccc(F)cc2)[C@H](C)CN([C@@H](C)CO)S3(=O)=O)cc1,?,·
CCC(=O)N1[C@@H]2CN(C(=O)CC(F)(F)F)c3ccccc3[C@@H]2[C@@H]1CO,23,18
C[C@@H]1CN([C@H](C)CO)S(=O)(=O)c2ccc(-c3ccccc3)cc2O[C@@H]1CN(C)C(=O)CC1CC1,-6,-13
C[C@H]1CN([C@@H](C)CO)C(=O)c2cccc(NS(=O)(=O)c3cccs3)c2O[C@@H]1CN(C)C,15,2
C/C=C/c1ccc([C@@H]2[C@H]3CN(C(=O)Nc4ccccc4F)CC(=O)N3[C@H]2CO)cc1,-2,-12
CCCN1C[C@H](C)[C@@H](OC)CN(C)C(=O)c2ccc(NC(=O)C3CC3)cc2OC[C@H]1C,4,6
C[C@H](CO)N1C[C@H](C)[C@H](CN(C)C(=O)Nc2ccccc2)Oc2ccc(NS(=O)(=O)c3cn(C)cn3)cc2C1=O,20,7
COc1ccc2c3c([nH]c2c1)[C@@H](CO)N(C(=O)Nc1ccccc1F)CC31CCN(C(=O)C2CC2)CC1,-6,-10
O=C(Nc1ccc2c(c1)[C@H]1C[C@@H](CC(=O)N3CCc4ccccc4C3)O[C@@H](CO)[C@H]1O2)C1CCOCC1,5,6
Cc1noc(C)c1S(=O)(=O)Nc1ccc2c(c1)C(=O)N([C@@H](C)CO)C[C@H](C)[C@@H](CN(C)C(=O)Nc1ccc3c(c1)OCO3)OCCCC[C@@H](C)O2,-5,3
CCc1csc(N2[C@H](C#N)[C@@H](c3ccc(-c4cccc(F)c4)cc3)[C@@H]2CO)n1,5,1
C[C@H](CO)N1C[C@H](C)[C@H](CN(C)Cc2ccc(C(=O)O)cc2)OCCCC[C@H](C)Oc2ccc(NC(=O)c3ccccc3)cc2C1=O,26,14
CO[C@H]1CN(C)C(=O)c2cc(NS(C)(=O)=O)ccc2OC[C@H](C)N(Cc2nccs2)C[C@@H]1C,18,8
CC(C)NC(=O)N1[C@@H](CO)[C@@H]2c3ccccc3N(C(=O)Nc3ccc(Cl)cc3)C[C@@H]21,7,-3
C[C@H](CO)N1C[C@H](C)[C@@H](CN(C)Cc2ccc(C(F)(F)F)cc2)Oc2ccc(NS(=O)(=O)c3cccs3)cc2CC1=O,?,·
C/C=C/c1cnc2c(c1)C(=O)N([C@H](C)CO)C[C@@H](C)[C@@H](CN(C)C(=O)NCCC)O2,10,1
Cc1noc(C)c1S(=O)(=O)Nc1ccc2c(c1)C(=O)N([C@@H](C)CO)C[C@@H](C)[C@H](CN(C)C(=O)Nc1cccc3ccccc13)O2,27,24
CC(C)C#Cc1ccc([C@H]2[C@@H](CO)N3CCCCN(S(=O)(=O)Cc4ccccc4)C[C@H]23)cc1,?,·
